Vaccinia stage = blocks a specific stage of Vaccinia orthopoxvirus infection, primary screen, cell-based, single point. Vaccinia-infected cells, mCherry/Venus stage reporter fluorescence; hits give low values; some inactives read as strong as hits. activity change (mCherry), % (test concentration not listed). actives 0.01% (n = 89,000). AID 1053133, 2014;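 active = mCherry past -33% and 40 or more points under the early reporter, replicates agreeing; inconclusive = past -33% without that gap or agreement; tested in A549 cells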;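 also: scaled between vehicle wells and reference inhibitor wells; 23 nL library stock went into each well; one replicate is shown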
Vaccinia stage Venus = recorded beside Vaccinia stage, whose call it bears; activity change (Venus), %; measured here: Venus reporter, other viral stage;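 negative = less Venus signal; first of two replicates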
The depositor's hits bear a star; ? = inconclusive; . = not tested or not shown. Some of the compounds tested; count on the stated rates, not on these rows.

SMILES	Vaccinia stage	Vaccinia stage Venus
CO[C@H]1CN(C)C(=O)c2ccc(NC(=O)c3cnccn3)cc2OC[C@H](C)N(CCc2ccccc2)C[C@@H]1C	-1.7	8.3
CC(C)CC#Cc1ccc([C@@H]2[C@H](CO)N3CCCCN(C(=O)c4ccc5c(c4)OCO5)C[C@@H]23)cc1	?	.
CO[C@H]1CN(C)C(=O)c2ccc(NC(=O)NC(C)C)cc2OC[C@@H](C)N(Cc2ccc(-c3ccccn3)cc2)C[C@@H]1C	-20.1	-16.0
CO[C@H]1CN(C)C(=O)c2cc(NC(=O)NC3CCCCC3)ccc2OC[C@@H](C)N(CCc2ccccc2)C[C@H]1C	-34.6	-22.4
COc1cccc(CN2CC3(C2)CN(C(=O)Nc2ccc(F)cc2)[C@@H](CO)c2c3c3ccc(OC)cc3n2C)c1	?	.
C[C@H](CO)N1C[C@H](C)[C@@H](CN(C)C(=O)CN(C)C)Oc2ncc(-c3ccc(C(=O)N(C)C)cc3)cc2C1=O	13.9	4.8
Cn1cnc(S(=O)(=O)N2CCCCN3[C@H](C2)[C@H](c2ccc(C4=CCCCC4)cc2)[C@@H]3CO)c1	?	.
COc1cccc(S(=O)(=O)N[C@H]2C=C[C@H](CC(=O)NC3Cc4ccccc4C3)O[C@H]2CO)c1	3.0	-2.3
C[C@@H](NC(=O)C[C@H]1C=C[C@H](NC(=O)C2CC2)[C@H](CO)O1)c1ccccc1	9.7	4.0
C[C@@H]1CN([C@H](C)CO)C(=O)c2cccc(NC(=O)Nc3ccccc3)c2O[C@H]1CN(C)CC1CCCCC1	-10.2	-7.5

Grouped by structure: the entries above with an aryl methoxy group.
SMILES	Vaccinia stage	Vaccinia stage Venus
COc1cccc(CN2CC3(C2)CN(C(=O)Nc2ccc(F)cc2)[C@@H](CO)c2c3c3ccc(OC)cc3n2C)c1	?	.
COc1cccc(S(=O)(=O)N[C@H]2C=C[C@H](CC(=O)NC3Cc4ccccc4C3)O[C@H]2CO)c1	3.0	-2.3

Single records, as listed above:
Cn1cnc(S(=O)(=O)N2CCCCN3[C@H](C2)[C@H](c2ccc(C4=CCCCC4)cc2)[C@@H]3CO)c1 across the screens: Vaccinia stage: ?; Vaccinia stage Venus: .
COc1cccc(S(=O)(=O)N[C@H]2C=C[C@H](CC(=O)NC3Cc4ccccc4C3)O[C@H]2CO)c1 across the screens: Vaccinia stage: 3.0; Vaccinia stage Venus: -2.3

(next part)
SMILES	Vaccinia stage	Vaccinia stage Venus
C[C@@H]1CN([C@@H](C)CO)C(=O)c2cc(-c3cccnc3)cnc2O[C@H]1CN(C)C(=O)Nc1ccc2c(c1)OCO2	11.2	12.0
C[C@@H]1CN([C@H](C)CO)C(=O)Cc2cc(NC(=O)CCN3CCOCC3)ccc2O[C@H]1CN(C)C	6.9	-1.7
C[C@@H]1CN([C@@H](C)CO)C(=O)c2cc(/C=C/c3ccccc3)cnc2O[C@@H]1CN(C)Cc1ccccc1F	?	.
CCC(=O)N1C[C@@H](C)[C@@H](OC)CN(C)C(=O)c2cc(NC(=O)Nc3cccc(F)c3)ccc2OC[C@H]1C	6.7	1.1
CN(C)CC(=O)N[C@H]1CC[C@H](CCNC(=O)C2CCC2)O[C@@H]1CO	8.1	11.6
C[C@H](O)C#Cc1ccc2c(c1)O[C@H](CN(C)Cc1ccc(-c3ccccc3)cc1)[C@H](C)CN([C@H](C)CO)S2(=O)=O	?	.
C[C@H]1CCCCO[C@H](CN(C)S(=O)(=O)c2cn(C)cn2)[C@@H](C)CN([C@@H](C)CO)C(=O)c2cc(NC(=O)Nc3ccc(F)cc3)ccc2O1	12.5	8.5
CCCC#Cc1cnc2c(c1)C(=O)N([C@H](C)CO)C[C@H](C)[C@@H](CN(C)S(C)(=O)=O)O2	21.5	17.5
COc1ccc2c3c(n(C)c2c1)[C@H](CO)N(C(=O)CN(C)C)CC31CN(Cc2nccs2)C1	6.4	-6.2
C[C@H]1CN([C@@H](C)CO)C(=O)c2cc(NC(=O)Nc3ccc(C(F)(F)F)cc3)ccc2O[C@H]1CN(C)C(=O)NC1CCCCC1	-34.2	-21.5
O=C(C[C@H]1CC[C@@H](NS(=O)(=O)c2cccc(F)c2)[C@H](CO)O1)NCc1ccc2c(c1)OCO2	-14.4	12.3
O=C(C[C@H]1C=C[C@@H](NS(=O)(=O)c2ccc(F)cc2)[C@H](CO)O1)NCc1ccccc1F	2.5	4.0
COCCOC(=O)N1C(=O)[C@@]2(c3cc(C#CCC(C(=O)OC)C(=O)OC)ccc31)[C@H](c1ccccc1OCCO)N1[C@H](c3ccccc3)[C@H](c3ccccc3)OC(=O)[C@H]1[C@@H]2C(=O)N1CCN(c2ncccn2)CC1	9.9	11.6
C/C=C/c1ccc([C@@H]2[C@H](CO)N3CCCCN(C(=O)CN(C)C)C[C@@H]23)cc1	-8.0	-0.6
Cc1noc(C)c1NC(=O)N(C)C[C@@H]1Oc2ccc(NS(=O)(=O)c3ccccc3)cc2C(=O)N([C@@H](C)CO)C[C@H]1C	6.5	11.1
C[C@H]1CN([C@@H](C)CO)C(=O)Cc2cc(NS(=O)(=O)c3ccccc3)ccc2O[C@@H]1CN(C)C(=O)NC1CCCCC1	1.2	2.6
Cc1ccc(S(=O)(=O)N[C@H]2CC[C@H](CC(=O)NCc3ccncn3)O[C@H]2CO)cc1	-4.9	-2.1
CNC[C@@H]1Oc2cc(C#CCC(C)C)ccc2S(=O)(=O)N([C@H](C)CO)C[C@H]1C	-27.3	-20.6
CCC(=O)N1CC[C@@H]2[C@H]1c1cc(C#Cc3ccccc3)ccc1N[C@@H]2CO	-4.4	1.5
CCCN(C)C[C@@H]1Oc2ncc(-c3ccc(OC)cc3)cc2C(=O)N([C@H](C)CO)C[C@@H]1C	1.8	-3.3
C[C@H](CO)N1C[C@H](C)[C@H](CN(C)Cc2ccc(C(=O)O)cc2)OCc2cn(nn2)CCCC1=O	25.4	17.7
CC(C)C[C@H]1COCn2nncc2CC[C@H](Cc2ccccc2)C(=O)N1	-7.2	-10.9
CC(=O)N1CCCCN2[C@H](CO)[C@@H](c3ccc(-c4ccccc4)cc3)[C@H]2C1	-9.9	-4.1
C[C@H](CO)N1C[C@H](C)[C@@H](CN(C)C(=O)Nc2ccccc2)Oc2ccc(NC(=O)Cc3cn(C)c4ccccc34)cc2CC1=O	-2.3	2.1
Cc1ccc(-c2ccc3c(c2)O[C@@H](CN(C)C(=O)NC(C)C)[C@H](C)CN([C@@H](C)CO)S3(=O)=O)cc1	-0.5	-6.4
C[C@H](CO)N1C[C@H](C)[C@H](CN(C)C(=O)CCC(F)(F)F)OCc2cn(nn2)CCCC1=O	6.5	-1.5
C[C@H](CO)N1C[C@H](C)[C@H](CN(C)C(=O)C2CCCCC2)OCCCC[C@H](C)Oc2ccc(NC(=O)Cc3ccccc3)cc2C1=O	-26.6	-21.6
CCCN(C)C[C@H]1Oc2cc(C#Cc3ccccn3)ccc2S(=O)(=O)N([C@H](C)CO)C[C@H]1C	-1.7	5.6
C[C@H](CO)N1C[C@H](C)[C@H](CN(C)C(=O)c2ccccc2F)Oc2ncc(C#Cc3cccc(F)c3)cc2C1=O	-29.8	-35.8
O=S(=O)(c1ccccc1)N1CCCCN2[C@H](C1)[C@@H](c1ccc(C#Cc3cccnc3)cc1)[C@@H]2CO	-7.9	1.6
CCCN1[C@H](C(=O)NCCOC)[C@@H](CO)[C@@H]2Cn3c(ccc(-c4ccc(C(=O)N(C)C)cc4)c3=O)[C@@H]21	2.8	6.4
CCC(=O)N1CC2(C1)[C@@H](c1ccc(-c3ccc(C#N)cc3)cc1)[C@H](CO)N2C(C)=O	4.8	16.8
CC(C)NC(=O)N(C)C[C@H]1OCCCC[C@H](C)Oc2ccc(N(C)C)cc2C(=O)N([C@H](C)CO)C[C@H]1C	19.2	8.7
CN1CCN(C(=O)C[C@@H]2CC[C@H]3[C@@H](COC[C@@H](O)CN3Cc3cccc(Cl)c3)O2)CC1	2.1	-3.1
C[C@H](CO)N1C[C@H](C)[C@@H](CN(C)Cc2ccc(C(=O)Nc3ccccc3N)cc2)Oc2ccc(NC(=O)Nc3ccc(F)cc3)cc2C1=O	10.7	2.1
COc1ccc(CN(C)C[C@H]2Oc3ccc(NC(=O)Nc4ccc(OC)cc4)cc3C(=O)N([C@H](C)CO)C[C@H]2C)cc1	-6.9	3.4
Cc1noc(C)c1NC(=O)N(C)C[C@H]1OCCCC[C@@H](C)Oc2ccc(NS(=O)(=O)c3c(C)noc3C)cc2C(=O)N([C@H](C)CO)C[C@H]1C	15.2	0.5
COCC(=O)Nc1ccc2c(c1)[C@H]1C[C@@H](CC(=O)NC3CCCC3)O[C@H](CO)[C@H]1O2	4.6	1.9
C[C@H](C(=O)N(C)C[C@H]1OCc2ccccc2-c2c(n(C)c3ccccc23)C(=O)N([C@H](C)CO)C[C@@H]1C)c1ccccc1	3.0	16.9
C[C@@H]1CN([C@H](C)CO)C(=O)c2cc(NS(=O)(=O)c3cccs3)ccc2O[C@@H](C)CCCCO[C@@H]1CN(C)S(=O)(=O)c1cccs1	?	.
C[C@@H]1CCCCO[C@H](CN(C)Cc2ccc(C(=O)O)cc2)[C@H](C)CN([C@@H](C)CO)C(=O)c2cc(NS(=O)(=O)c3cccs3)ccc2O1	8.6	14.0
O=C(Nc1ccccc1)C1=C[C@@H](c2ccccc2)C[C@@H](OCc2ccc(CO)cc2)O1	7.7	6.4
C[C@H](CO)N1C[C@H](C)[C@@H](CN(C)S(=O)(=O)c2ccc(Cl)cc2)Oc2c(NC(=O)C3CCCCC3)cccc2C1=O	-14.5	-12.6
CCNC(=O)[C@@H]1[C@@H](CO)[C@@H]2Cn3c(ccc(-c4ccccc4F)c3=O)[C@@H]2N1C(=O)CC	7.6	2.2
N#C[C@H]1[C@H](c2ccc(-c3cncnc3)cc2)[C@@H](CO)N1C(=O)C1CCOCC1	3.4	-2.6
COc1ccc(CN(C)C[C@H]2OCCCC[C@@H](C)Oc3ccc(NS(=O)(=O)c4cccs4)cc3C(=O)N([C@H](C)CO)C[C@H]2C)cc1	?	.
C[C@H]1CN([C@@H](C)CO)C(=O)c2cc(NS(=O)(=O)c3ccc(F)cc3)ccc2O[C@@H]1CN(C)C(=O)NC1CCCCC1	17.0	1.6
C[C@H](CO)N1C[C@H](C)[C@@H](CN(C)C(=O)CN(C)C)Oc2ncc(C#CC3(O)CCCC3)cc2C1=O	20.0	6.5
C[C@@H]1CCCCO[C@H](CN(C)Cc2ccc(C(F)(F)F)cc2)[C@H](C)CN([C@H](C)CO)C(=O)c2cc(NC(=O)Nc3ccc(F)cc3)ccc2O1	-3.1	-4.8
CCCN1[C@@H]2c3ccc(C4=CCCCC4)c(=O)n3C[C@H]1[C@H](CO)[C@H]2C(=O)Nc1ccccc1	11.9	1.0

New compounds follow
SMILES	Vaccinia stage	Vaccinia stage Venus
N#C[C@@H]1[C@@H](c2ccc(C#CC3CCCCC3)cc2)[C@H](CO)N1C(=O)Cc1ccccn1	-26.9	-24.8
Cc1noc(C)c1NC(=O)Nc1ccc2c(c1)C(=O)N([C@H](C)CO)C[C@H](C)[C@H](CN(C)C)OCCCC[C@H](C)O2	7.5	9.9
C/C=C/c1cnc2c(c1)C(=O)N([C@@H](C)CO)C[C@@H](C)[C@H](CN(C)S(=O)(=O)c1cn(C)cn1)O2	25.0	6.3
CN1CCN(C(=O)C[C@@H]2C[C@@H]3c4cc(NC(=O)NC5CCCC5)ccc4O[C@@H]3[C@H](CO)O2)CC1	15.0	14.8
C[C@H](CO)N1C[C@H](C)[C@H](CN(C)Cc2ccccc2)Oc2ccc(NS(C)(=O)=O)cc2CC1=O	4.3	-1.2
CCCN1C[C@H](C)[C@@H](OC)CN(C)C(=O)c2cc(NC(=O)c3cccc(F)c3)ccc2OC[C@H]1C	-3.6	-2.8
C/C=C/c1cnc2c(c1)C(=O)N([C@H](C)CO)C[C@H](C)[C@H](CN(C)C(=O)Nc1cccc(OC)c1)O2	15.6	13.6
CC(=O)N1CC(=O)N2[C@H](C1)[C@H](c1ccc(C#CC(C)C)cc1)[C@@H]2CO	7.4	-1.2
CC(=O)N1Cc2cc(C(=O)NCC(F)(F)F)nc(-c3cccc(-c4cc5ccccc5o4)c3)c2[C@H]1CCO	6.3	1.0
CCCNC(=O)Nc1ccc2c(c1)C(=O)N(C)C[C@@H](OC)[C@@H](C)CN(C(C)=O)[C@@H](C)CO2	-11.6	-1.2
CO[C@H]1CN(C)C(=O)c2ccc(NC(=O)C3CC3)cc2OC[C@H](C)N(C(=O)c2cccnc2)C[C@H]1C	14.3	13.8
C[C@@H]1CN([C@@H](C)CO)C(=O)c2cc(NS(=O)(=O)c3ccc(F)cc3)ccc2O[C@@H]1CN(C)Cc1ccc(C(F)(F)F)cc1	?	.
C[C@@H]1CN([C@@H](C)CO)C(=O)c2cc(NC(=O)c3ccccc3)ccc2O[C@@H](C)CCCCO[C@@H]1CN(C)Cc1ccc(C(F)(F)F)cc1	-28.1	-20.4
CC(=O)N(C)C[C@@H]1Oc2ncc(C#Cc3ccccn3)cc2C(=O)N([C@@H](C)CO)C[C@H]1C	9.5	9.8
C[C@H](CO)N1C[C@H](C)[C@@H](CN(C)CC2CCCCC2)Oc2ccc(NC(=O)Cc3cn(C)c4ccccc34)cc2C1=O	-21.8	-13.3
COc1ccccc1C#Cc1ccc([C@@H]2[C@@H](CO)N3CCCCN(C(=O)C4CC4)C[C@H]23)cc1	?	.
CC(C)CC#Cc1cnc2c(c1)C(=O)N([C@H](C)CO)C[C@H](C)[C@H](CN(C)C(=O)c1cccnc1)O2	20.6	10.2
CC(=O)N(C)C[C@@H]1Oc2cc(C#CC3(O)CCCC3)ccc2S(=O)(=O)N([C@H](C)CO)C[C@@H]1C	9.1	0.6
COc1ccc(S(=O)(=O)Nc2ccc3c(c2)[C@@H]2C[C@H](CC(=O)O)O[C@H](CO)[C@@H]2O3)cc1	12.6	10.6
